# Assay outcomes: PubChem BioAssay, several laboratories
# Rce1 inh: blocks yeast Ras-converting enzyme. Q03530. yeast membranes, quenched prenylated peptide cleavage fluorescence. calls only. hit rate 0.27% among 290,000. AID 2563;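 active = fall in fluorescence gain of 50% or more versus controls, with final raw signal at or below 3038400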;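 also: plate controls were neutral control wells for no effect and wells lacking membranes for full effect; tested at 10 µM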
# Target sequence (Q03530 whole entry, looked up): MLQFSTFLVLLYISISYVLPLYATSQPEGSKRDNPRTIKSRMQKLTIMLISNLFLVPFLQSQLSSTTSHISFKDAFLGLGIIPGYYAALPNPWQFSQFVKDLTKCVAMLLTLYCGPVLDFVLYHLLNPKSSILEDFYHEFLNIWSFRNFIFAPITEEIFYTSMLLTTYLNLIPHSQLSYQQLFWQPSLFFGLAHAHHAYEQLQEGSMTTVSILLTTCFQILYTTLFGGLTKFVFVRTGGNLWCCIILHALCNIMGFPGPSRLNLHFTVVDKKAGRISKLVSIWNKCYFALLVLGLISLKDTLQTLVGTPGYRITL
# UUG fidelity: modulators of start codon recognition fidelity in yeast; S. cerevisiae UUG-firefly luciferase reporter, luminescence/redox ratio; hit rate 0.13% among 350,000; activity score, % at 18.7 µM;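 active = replicate mean at a twofold rise or more, about +100% in these data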;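 also: firefly luciferase made from a UUG start codon reports start codon fidelity; reporter light over untreated wells divided by growth signal over untreated wells; some hits fall short of that in this replicate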
# CSC inhib: cancer stem cell inhibition. cancer stem cell-like cells viability, luminescence. inhibition, % at 7.5 µM. hit rate 1.1% among 300,000;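 active = mean at 75% or more and at least half the replicates too; tested in HMLE shEcad cells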;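 also: 0% = median of negative and 100% = median of positive control wells; the first replicate is given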
# HIV Env fusion: inhibitors of HIV Env-mediated cell fusion. HeLa-JRFL Env/CEM21 cell fusion, luciferase. inhibition, % at 12.3 µM. hit rate 1.1% among 360,000. AID 651610;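 active = mean replicate inhibition score of at least 50 and every replicate individually at or above 50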;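 also: 0% = plate neutral controls and 100% = maraviroc near 300 nM; one replicate is shown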
# PABP polyA inh: blocks human PABP binding to poly(A) RNA | AID 2014 | fluorescence polarization | inhibition, % at 35 µM | hit rate 1% among 290,000;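 active = 50% or more with normal probe brightness, or confirmed in later tests; about a fifth of its hits are not listed in these tables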;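 also: calls also rest on retests at 20 µM and on dose response follow-up; controls were probe without protein and protein plus probe with vehicle; some compounds called inactive have numbers as strong as hits; many hits fall short of the cut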
# eIF4H inh: inhibitors of RNA binding by human eIF4H | Q15056 | eIF4H fluorescence polarization binding assay | inhibition, % at 35 µM | hit rate 0.94% among 290,000;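 active = 50% or more with normal probe brightness, or confirmed in later tests; about a fifth of its hits are not listed in these tables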;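 also: calls also rest on retests at 20 µM and on dose response follow-up; 0% = protein and probe with vehicle and 100% = probe without protein; strong numbers were not always called active; many hits fall short of the cut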
# MT1-MMP act inh: MT1-MMP (human) activation inhibition | P50281 | HT1080 RFP-PRO-GFP cells, GFP/RFP ratio fluorescence, overnight; percent of plate control window, DMSO zero | GFP/RFP ratio change, % at 20 µM | hit rate 0.061% among 360,000;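 active = GFP/RFP ratio change of at least 30% with cell ATP level not reduced by more than half and red fluorescence within 50% of control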; also: strong numbers were not always called active
#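 system = RFP-PRO-GFP reporter HT1080 cells | dosing = 20 µM single dose, 1% DMSO | timing = overnight cell settling, then overnight compound exposure, 37 °C, 5% CO2 | read-out basis = GFP/RFP fluorescence ratio | controls = DMSO and RFP-L50D-GFP cell wells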
# MT1-MMP act inh RFP: second read-out of MT1-MMP act inh, no call of its own (marks repeat the call); RFP signal change, %; measured here: RFP expression control read;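 0 = vehicle wells; hits needed this value within 50% of zero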
# An asterisk follows results filed as active; i = inactive; . = no result given. Only part of the results is shown. The share of hits here may be higher or lower than overall.
# The line under a structure holds: MT1-MMP act inh RFP, eIF4H inh, Rce1 inh, MT1-MMP act inh, HIV Env fusion, CSC inhib, PABP polyA inh, UUG fidelity
1	CC(c1ccccc1)n1cnc2ccccc21 (stereo not drawn)
 : -7, 27, i, -3, -32, -6, 0, -10
2	Cn1c(=O)oc2cc(S(=O)(=O)N3CCCC(C(=O)NCc4ccc5c(c4)OCO5)C3)ccc21 (stereo not drawn)
 : -8, 0, ., 1, 13, 3, -7, -6
3	CCc1ccc2cccc3c2c1N=CN3C
 : 6, ., i, 2, 16, -12, ., -15
4	Cn1nc(-c2ccc(S(N)(=O)=O)s2)cc1C(F)(F)F
 : -4, -8, i, 0, -4, -5, 9, .
5	CN(C)c1ccc(/C=N\NC(=O)c2ccc(Cn3cc(Cl)cn3)cc2)cc1
 : 0, -6, i, -4, ., 47, -6, .
6	Cc1ccc(NNC(=O)c2cc(C)on2)c(C)c1
 : 4, -9, i, -1, 8, 26, 6, .
7	Cc1cccc(C)c1NC(=O)N1C2CCC1CC(O)(c1cccnc1)C2 (stereo not drawn)
 : 2, -2, i, 0, -2, -8, -12, -11
8	CSc1ccc(CNc2nc3ccccc3n3cnnc23)cc1
 : -4, -2, i, -4, -6, ., 0, .
9	O=C(c1cc2cc(F)ccc2[nH]1)N1CCc2ccccc2C1
 : 0, -21, i, -3, -9, 0, 4, -7
10	O=C1CCC[C@@H]2Cc3[nH]c4c(Cl)ccc(Cl)c4c3[C@@H]3CCN1[C@H]23
 : -4, -3, i, 0, 10, 4, 6, -12

# The line under a structure holds: MT1-MMP act inh RFP, eIF4H inh, Rce1 inh, MT1-MMP act inh, HIV Env fusion, CSC inhib, PABP polyA inh, UUG fidelity
11	COc1ccc(S(=O)(=O)N2CCOCC2)cc1NC(=O)c1ccc(SC)cc1OC
 : -3, ., ., 4, -34, ., ., -10
12	Cn1c(=O)c2cc(NC(=S)NC3CCCCC3)ccc2n1-c1ccccc1
 : -1, ., ., 3, -8, ., ., -23
13	CCCNC(=O)c1cc(C2CCCCN2S(=O)(=O)c2ccc(C#N)cc2)on1 (stereo not drawn)
 : -2, ., ., -1, -11, ., ., 0
14	COC(=O)C(O)(CC(=O)Nc1ccc(Cl)cc1F)C(F)(F)F (stereo not drawn)
 : 3, 1, ., -1, ., 1, 0, .
15	COc1ccc(Cc2nc3ccc(C(=O)N4CCC(C(N)=O)CC4)cc3o2)cc1
 : 1, ., ., -2, 20, ., ., -12
16	CCN(CC(=O)NCc1cccs1)C(=O)c1cccc(S(=O)(=O)N2CCc3ccccc32)c1
 : -1, -4, i, 1, 19, 0, 13, .
17	CC(C)Oc1cccc(C(=O)Nc2ccc(CN3CCOCC3)cc2)c1
 : -6, -4, i, 1, ., -13, 2, -18
18	Cc1cc(-c2onc(C)c2C(=O)O)no1
 : 1, -4, i, -2, -3, 2, -1, -2
19	CCC(=O)Nc1ccnc(-c2cccnc2)n1
 : 1, -4, i, -2, -146, ., 5, -1
20	Cc1ccc(/C=N/NC(=O)CC(=O)NCc2cccnc2)cc1
 : 1, 0, i, -1, ., -2, 27, -16

# The line under a structure holds: MT1-MMP act inh RFP, eIF4H inh, Rce1 inh, MT1-MMP act inh, HIV Env fusion, CSC inhib, PABP polyA inh, UUG fidelity
21	O=C(Nc1ccc2c(c1)OCCO2)c1cccnc1
 : 6, -13, i, -7, -86, -16, 11, -12
22	COc1ccccc1C(=O)Nc1ccccc1N1CCOCC1
 : -5, -10, i, -1, ., 1, -7, -12
23	CCOc1ccc(S(=O)(=O)Nc2ccc3c(c2)c2c(n3S(=O)(=O)c3ccc(OCC)cc3)CCCC2=O)cc1
 : ., -8, i, ., -17, 3, -3, .
24	C=CCOC(=O)C1=C[C@@H](c2ccccc2)C[C@@H](OCc2ccc(CO)cc2)O1
 : 3, 13, i, 4, 0, 7, 8, -1
25	Cc1cnc(NC(=O)CSc2nnc(COc3c(C)cccc3C)o2)s1
 : 5, -6, i, 5, 8, 0, -12, -13
26	Cc1cc(C)c(S(=O)(=O)c2ccccc2C)c(SCC(C)C)n1
 : -3, -14, i, 0, ., 26, 1, -10
27	CC1CCN(c2ccccc2NC(=S)NC(=O)c2ccco2)CC1
 : -5, ., i, -11, ., 26, ., -11
28	COc1cccc(CN(CC(=O)NC2CCCC2)C(=O)c2csnn2)c1
 : 1, -6, i, -2, -11, -9, -3, -2
29	CC(C)CNC(=O)c1cccc(NC(=O)c2ccccc2-c2ccccc2C(=O)O)c1
 : 3, -4, i, 3, -18, -12, -3, -3
30	Clc1cccc(Cl)c1CSc1nnc2ccccn12
 : 6, -8, i, 1, ., 5, -5, -10

# Fetched by structure from above, 2 records:
# The line under a structure holds: MT1-MMP act inh RFP, eIF4H inh, Rce1 inh, MT1-MMP act inh, HIV Env fusion, CSC inhib, PABP polyA inh, UUG fidelity
29	CC(C)CNC(=O)c1cccc(NC(=O)c2ccccc2-c2ccccc2C(=O)O)c1
 : 3, -4, i, 3, -18, -12, -3, -3
26	Cc1cc(C)c(S(=O)(=O)c2ccccc2C)c(SCC(C)C)n1
 : -3, -14, i, 0, ., 26, 1, -10

# Further structures:
# The line under a structure holds: MT1-MMP act inh RFP, eIF4H inh, Rce1 inh, MT1-MMP act inh, HIV Env fusion, CSC inhib, PABP polyA inh, UUG fidelity
31	COC(=O)CN1C(=O)N/C(=C/c2ccc(OC)c(C)c2OC)C1=O
 : 2, -5, i, 0, -4, ., 10, .
32	Cc1cc(NS(=O)(=O)c2ccc(NC(=O)c3ccc([N+](=O)[O-])s3)cc2)nc(C)n1
 : -5, ., ., 3, -9, 16, ., -3
33	O=C(CN1CCC(Cc2ccccc2)CC1)NC(=O)NCc1ccccc1
 : -1, -3, i, 0, 7, -1, -8, 5
34	COc1ccccc1N1CCN(C(=O)c2cc3c(-c4ccc(Cl)cc4)nn(C)c3s2)CC1
 : -4, -6, i, -5, 1, 12, 7, 10
35	COc1cccc(NC(=O)C2CCN(S(=O)(=O)c3ccc4c(c3)C(C)(C)C(=O)N4C)CC2)c1
 : -1, -6, i, -2, 31, 5, -5, -11
36	N#C/C(=C\c1ccc(Cl)cc1)c1nc2ccccc2o1
 : -1, 81*, i, -2, -83, 13, 119*, .
37	CC(C(=O)Nc1ccc2c(c1)OCO2)N(c1ccc(Cl)cc1)S(C)(=O)=O (stereo not drawn)
 : 0, 7, i, 3, ., 7, 20, -4
38	CCN(CC)N=Nc1cccc(NC(C)=O)c1
 : -4, -6, i, -1, 3, 14, 2, .
39	C=CC[C@H](CC(=O)N[C@H](CO)Cc1ccccc1)C(=O)N[C@@H](COC(=O)[C@H](CC=C)CC(=O)OC(C)(C)C)Cc1c[nH]c2ccccc12
 : -7, ., ., -1, -41, ., ., 9
40	Cc1ccc2[nH]c(C(=O)N/N=C/c3ccccc3O)c(C)c2c1
 : -16, 2, i, -13, 15, 38, 13, -8

# The line under a structure holds: MT1-MMP act inh RFP, eIF4H inh, Rce1 inh, MT1-MMP act inh, HIV Env fusion, CSC inhib, PABP polyA inh, UUG fidelity
41	Cn1c(/C=N/NC(=O)c2ccccc2)nc2ccccc21
 : 4, -4, i, 10, ., 13, 3, -16
42	O=C(O)c1cc(NN=C2CCN(Cc3ccccc3)CC2)ccc1Cl
 : 2, 3, i, -2, -23, -11, 8, -5
43	NC(=O)c1c(NC(=S)Nc2ccccc2)sc2c1CCCC2
 : 0, -2, i, -3, -18, ., -5, -23
44	CN1C[C@@H]2C(c3ccccc3)C3(c4ccc(C#N)cc4)CC2(C3)[C@H]1c1ccccc1 (stereo partly drawn)
 : -1, -5, i, -1, 8, 8, -5, -30
45	Cc1ccc(-c2cnc(C(O)c3ccc(Cl)cc3C)[nH]2)cc1 (stereo not drawn)
 : 4, ., ., 1, 1, ., ., -25
46	CC(=O)Nc1ccc(Nc2cc(C)nc3c(-c4ccccc4)c(C)nn23)cc1
 : -2, -1, i, 2, -16, -7, 0, .
47	COc1ccc(C2=Nn3c(nnc3C(F)(F)F)SC2)cc1
 : -4, -5, i, 1, 6, 23, 4, 13
48	C#CCNC(=O)C1=C[C@@H](c2cn(C(C)=O)c3ccccc23)C[C@@H](OCc2ccc(CO)cc2)O1
 : 2, -10, i, 3, -12, 1, 1, -13
49	O=c1[nH]cnc2onc(-c3ccc(F)cc3)c12
 : 2, 1, i, 0, -7, -16, -6, -12
50	Cn1nnnc1SCc1cccc2ccccc12
 : 5, 4, i, 2, 4, -6, 16, .

# The line under a structure holds: MT1-MMP act inh RFP, eIF4H inh, Rce1 inh, MT1-MMP act inh, HIV Env fusion, CSC inhib, PABP polyA inh, UUG fidelity
51	O=C(NC(NC(=S)Nc1c(Cl)cc(Cl)cc1Cl)C(Cl)(Cl)Cl)OCc1ccccc1 (stereo not drawn)
 : -29, -13, i, -24, ., 32, 2, 4
52	CCC(C)c1ccc(NC(=O)COC(=O)C2CCCC2)cc1 (stereo not drawn)
 : 2, ., ., 2, 0, ., ., -8
53	CCC(C)[C@H](NC(=O)NCc1ccc(Cl)cc1)C(=O)OC (stereo partly drawn)
 : 2, 1, i, 0, ., -13, -14, 16
54	COC1(NC(=O)c2ccccc2)C(C)=CC(=O)C=C1C
 : 7, -7, i, -1, 11, 0, -16, .
55	CCOC(=O)COc1ccc(S(=O)(=O)Nc2ccc(C)cc2)cc1
 : 5, 5, i, 3, -93, 4, 10, .
56	CCCOC(=O)c1cc(-c2ccc(C=O)o2)ccc1Cl
 : -2, -8, i, 0, -83, 36, -9, -21
57	CC(=O)Nc1ccc(NS(=O)(=O)c2ccc3c(c2)NC(=O)CC(=O)N3)cc1
 : 4, 15, i, -4, -3, -7, 26, -13

# Some entries already given with just eIF4H inh, CSC inhib and Rce1 inh:
entry | SMILES | eIF4H inh | CSC inhib | Rce1 inh
53 | CCC(C)[C@H](NC(=O)NCc1ccc(Cl)cc1)C(=O)OC (stereo partly drawn) | 1 | -13 | i
54 | COC1(NC(=O)c2ccccc2)C(C)=CC(=O)C=C1C | -7 | 0 | i
55 | CCOC(=O)COc1ccc(S(=O)(=O)Nc2ccc(C)cc2)cc1 | 5 | 4 | i
56 | CCCOC(=O)c1cc(-c2ccc(C=O)o2)ccc1Cl | -8 | 36 | i
57 | CC(=O)Nc1ccc(NS(=O)(=O)c2ccc3c(c2)NC(=O)CC(=O)N3)cc1 | 15 | -7 | i
